CSC inhib: blocks cancer stem cells; 300,000 compounds, 1.1% hits; cancer stem cell-like cells viability, luminescence; inhibition, % at 7.5 µM; AID 2717;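 active means mean at 75% or more and at least half the replicates too; tested in HMLE shEcad cells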;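 further: 0% = median of negative and 100% = median of positive control wells; the first replicate is given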
PABP FP inh: PABP-poly(A) binding inhibition | P11940 | PABP-poly(A) RNA binding, fluorescence polarization | 290,000 compounds, 1% hits | inhibition, % at 35 µM;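 active means 50% or more with normal probe brightness, or confirmed in later tests; about a fifth of its hits are not listed in these tables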;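 further: calls also rest on retests at 20 µM and on dose response follow-up; controls were probe without protein and protein plus probe with vehicle; some compounds called inactive have numbers as strong as hits; many hits fall short of the cut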
Target sequence (P11940 whole entry, looked up): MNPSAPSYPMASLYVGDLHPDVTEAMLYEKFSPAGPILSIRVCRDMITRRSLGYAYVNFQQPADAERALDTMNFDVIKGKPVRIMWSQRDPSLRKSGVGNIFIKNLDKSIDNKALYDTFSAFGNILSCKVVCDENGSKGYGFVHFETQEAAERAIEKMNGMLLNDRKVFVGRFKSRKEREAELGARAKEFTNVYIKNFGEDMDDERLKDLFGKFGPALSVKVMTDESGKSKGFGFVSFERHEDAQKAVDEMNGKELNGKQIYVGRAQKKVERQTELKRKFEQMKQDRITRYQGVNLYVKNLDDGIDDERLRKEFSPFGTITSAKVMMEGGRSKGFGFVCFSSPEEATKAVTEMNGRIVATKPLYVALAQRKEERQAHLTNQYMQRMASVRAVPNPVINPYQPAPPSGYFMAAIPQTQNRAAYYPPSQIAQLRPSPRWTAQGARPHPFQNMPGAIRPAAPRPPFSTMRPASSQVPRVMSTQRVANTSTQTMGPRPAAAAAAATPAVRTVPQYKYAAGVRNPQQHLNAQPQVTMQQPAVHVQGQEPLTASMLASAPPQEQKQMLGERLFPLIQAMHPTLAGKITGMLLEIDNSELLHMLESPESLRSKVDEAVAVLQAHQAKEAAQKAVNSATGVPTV
Rce1 inhib: inhibitors of yeast Ras-converting enzyme. Q03530. AID 2563. 290,000 compounds, 0.27% hits. calls only. yeast membranes, quenched prenylated peptide cleavage fluorescence;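 active means fall in fluorescence gain of 50% or more versus controls, with final raw signal at or below 3038400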;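 further: plate controls were neutral control wells for no effect and wells lacking membranes for full effect; tested at 10 µM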
Target sequence (Q03530 whole entry, looked up): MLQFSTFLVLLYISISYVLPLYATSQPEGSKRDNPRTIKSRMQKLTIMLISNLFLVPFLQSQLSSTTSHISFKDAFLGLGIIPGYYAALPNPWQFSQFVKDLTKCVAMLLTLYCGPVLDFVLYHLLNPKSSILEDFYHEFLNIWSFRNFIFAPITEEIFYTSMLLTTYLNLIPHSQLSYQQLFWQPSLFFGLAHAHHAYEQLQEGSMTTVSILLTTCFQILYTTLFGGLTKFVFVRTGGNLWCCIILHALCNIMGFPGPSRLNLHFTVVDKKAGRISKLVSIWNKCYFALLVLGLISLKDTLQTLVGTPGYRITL
eIF4H FP inh: inhibitors of RNA binding by human eIF4H | Q15056 | eIF4H fluorescence polarization binding assay | inhibition, % at 35 µM | 290,000 compounds, 0.94% hits | AID 2012;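 active means 50% or more with normal probe brightness, or confirmed in later tests; about a fifth of its hits are not listed in these tables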;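 further: calls also rest on retests at 20 µM and on dose response follow-up; 0% = protein and probe with vehicle and 100% = probe without protein; strong numbers were not always called active; many hits fall short of the cut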
UUG fidelity: yeast start codon fidelity modulation; S. cerevisiae UUG-firefly luciferase reporter, luminescence/redox ratio; activity score, % at 18.7 µM; 350,000 compounds, 0.13% hits; AID 602363;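 active means replicate mean at a twofold rise or more, about +100% in these data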;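 further: firefly luciferase made from a UUG start codon reports start codon fidelity; reporter light over untreated wells divided by growth signal over untreated wells; some hits fall short of that in this replicate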
MT1-MMP act inh: MT1-MMP (human) activation inhibition | P50281 | HT1080 RFP-PRO-GFP cells, GFP/RFP ratio fluorescence, overnight; percent of plate control window, DMSO zero | GFP/RFP ratio change, % at 20 µM | 360,000 compounds, 0.061% hits | AID 651647;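 active means GFP/RFP ratio change of at least 30% with cell ATP level not reduced by more than half and red fluorescence within 50% of control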; further: strong numbers were not always called active
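Material: RFP-PRO-GFP reporter HT1080 cells. Dosing: single-point 20 µM compound, 1% DMSO. Controls: DMSO and RFP-L50D-GFP cell wells. Timing: cells overnight before dosing, compound overnight, 37 °C, 5% CO2. Measure: GFP/RFP fluorescence ratio.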
HIV Env fusion: inhibitors of HIV Env-mediated cell fusion. HeLa-JRFL Env/CEM21 cell fusion, luciferase. inhibition, % at 12.3 µM. 360,000 compounds, 1.1% hits. AID 651610;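 active means mean replicate inhibition score of at least 50 and every replicate individually at or above 50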;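 further: 0% = plate neutral controls and 100% = maraviroc near 300 nM; one replicate is shown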
eIF4H FP inh retest: also measured in eIF4H FP inh; calls as there; inhibition, %; compound at 20 µM; confirmation average;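 mean of two retest wells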
PABP FP inh retest: further read-out of PABP FP inh, marked with its call; inhibition, %; compound at 20 µM; confirmation repeats;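 mean of two retest wells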
MT1-MMP act inh RFP: second read-out of MT1-MMP act inh, no call of its own (marks repeat the call); RFP signal change, %; measured here: RFP expression control read;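 0 = vehicle wells; hits needed this value within 50% of zero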
* marks the source's active call; other numbers are inactive results; i = inactive; . = no result given; + = active, no number; & = joins results of further samples. Only part of the results is shown (hit frequency here may not be typical).

SMILES	CSC inhib	PABP FP inh	Rce1 inhib	eIF4H FP inh	UUG fidelity	MT1-MMP act inh	MT1-MMP act inh RFP	HIV Env fusion	others
O=C(CSc1ncccc1-c1nc2ccccc2[nH]1)N1CCN(c2ccccc2F)CC1	-7	9	i	1	-6	-9	-3	17
COc1ccc(NS(=O)(=O)c2cccc(C(=O)NC3CCC(O)CC3)c2)cc1 (stereo not drawn)	-5	-3	i	-2	1	3	-10	34
O=C(Nc1ccccc1)N1CCN(C2c3ccccc3-c3ccccc32)CC1	-2	-10	i	-11	-7	-4	-5	11
COc1cc(C(=O)Nc2cc(S(=O)(=O)N3CCOCC3)ccc2N2CCOCC2)cc(OC)c1C	.	.	.	.	47	3	-3	-23
Cc1[nH]n(-c2ccccc2)c(=O)c1/C=N/Nc1nncc(-c2ccccc2)n1	110*	1	i	12	-37	5	-6	.
CCn1nc(C(=O)OCC(=O)N2CCc3ccccc32)c2ccccc2c1=O	-7	-6	i	4	13	5	3	-74
CC(C)C(NC(=O)c1cccc(S(=O)(=O)N2CCOCC2)c1)C(=O)NCCc1ccccn1 (stereo not drawn)	2	15	i	-3	26	-6	7	.
Cc1cccc(-n2c(C)cc(/C=N/n3cnnc3)c2C)c1	-8	-4	i	0	.	-1	-9	.
Cc1cc(Cl)ccc1OCC(=O)Nn1c(C)ccc1C	-3	4	i	-1	12	2	5	-57
COc1ccc(Nc2c[nH]c(=O)[nH]c2=O)cc1	.	.	.	.	-12	3	2	-12
Cc1ccc(F)cc1NC(=O)CSCc1nc2sc(C)c(C)c2c(=O)[nH]1	5	.	i	.	.	-6	1	-10
O=C(c1ccc(N2CCCC2)c([N+](=O)[O-])c1)N1CCc2ccccc2C1	-5	.	i	.	.	6	6	9
Cn1c(=O)c2c(nc(SCC(=O)N3c4ccccc4CCc4ccccc43)n2C)n(C)c1=O	.	-1	.	-10	1	-6	2	.
CCOC(=O)C1CCN(S(=O)(=O)c2cn(C)c(C)n2)CC1	2	-2	i	3	9	-3	3	5
CC(NC(=O)c1ccccc1Br)c1ccc2c(c1)CCCC2 (stereo not drawn)	.	-2	i	-6	-7	3	-1	4

Quoted at random: 3 compounds from above.
SMILES	CSC inhib	PABP FP inh	Rce1 inhib	eIF4H FP inh	UUG fidelity	MT1-MMP act inh	MT1-MMP act inh RFP	HIV Env fusion	others
COc1ccc(NS(=O)(=O)c2cccc(C(=O)NC3CCC(O)CC3)c2)cc1 (stereo not drawn)	-5	-3	i	-2	1	3	-10	34
COc1cc(C(=O)Nc2cc(S(=O)(=O)N3CCOCC3)ccc2N2CCOCC2)cc(OC)c1C	.	.	.	.	47	3	-3	-23
Cc1ccc(F)cc1NC(=O)CSCc1nc2sc(C)c(C)c2c(=O)[nH]1	5	.	i	.	.	-6	1	-10

New compounds follow
SMILES	CSC inhib	PABP FP inh	Rce1 inhib	eIF4H FP inh	UUG fidelity	MT1-MMP act inh	MT1-MMP act inh RFP	HIV Env fusion	others
CCCCOc1ccc(N2CC(C(=O)NCc3ccco3)CC2=O)cc1 (stereo not drawn)	.	-9	i	2	-12	1	3	19
O=c1cc2c(nn1Cc1ccc(F)cc1)-c1ccccc1CC2	-8	14	i	5	.	0	-1	5
Cc1ccc(CN2CCNC(=O)C2CC(=O)N(C)C2CCOCC2)cc1 (stereo not drawn)	0	3	i	5	-11	-2	2	-1
CN(C)S(=O)(=O)c1ccc(C(=O)N2CCC(c3nc4ccccc4o3)CC2)cc1	-4	5	i	-12	-15	6	2	23
C/C(=N\NC(=O)CCC(=O)Nc1ccccc1)c1cccs1	-10	88	i	1.1*	.	3	4	15	eIF4H FP inh retest=55*;PABP FP inh retest=26
O=C(O)C1CCN(C(=O)Cc2ccccc2)CC1	-6	6	i	4	-19	-1	3	-2
O=C(Cc1ccccc1)N[C@@H]1c2ccccc2CC[C@@H]1OCc1ccccc1	.	.	.	.	-19	-10	-13	-13
CC1=CN2C(=NC(=O)CC2(C)C(=O)N(CC(=O)NC2CCCC2)c2ccccc2C)C=C1 (stereo not drawn)	7	-3	i	-5	.	-2	3	-11
COc1ccc(CC(=O)Nc2cccc(-c3nnc(-c4cccc(C)c4)o3)c2)cc1OC	63	-7	i	-5	-10	-3	-21	.
COc1ccccc1OC(C)C(=O)O (stereo not drawn)	-13	8	i	-1	.	-1	0	-69
CCOCCn1c(=NC(=O)/C=C/c2ccccc2Cl)sc2cc(NC(C)=O)ccc21	0	-11	i	-2	.	3	-1	14
CN(C)CCN(C(=O)c1ccc2ccccc2c1)c1nc2ccc(Br)cc2s1	11	5	+	-11	-19	1	4	-5
O=C(CCC1COc2ccccc2O1)NCc1ccccc1 (stereo not drawn)	-4	-2	i	-12	-2	2	4	-66
O=S(=O)(/C=C/c1ccccc1)N1CCNCC1	-1	-7	i	-8	7	2	6	-4
Cc1ccc(S(=O)(=O)N2CCC(C(=O)NC3CC3)CC2)cc1	-12	-2	i	4	-16	3	4	5
COC(=O)c1c(-c2cc(C)ccc2C)csc1NC(=O)C1CC=CCC1C(=O)O (stereo not drawn)	-3	5	i	1	.	-1	7	7
CCOc1ccc(N=Cc2ccc3ccccc3c2)cc1	-2	-5	i	-1	-20	1	3	-40
CCOc1cc(CNCCN2CCOCC2)ccc1OCc1ccccc1Cl	61	6	i	1	-23	5	5	10
CC(=O)Nc1ccc(S(=O)(=O)NCCN2CCNC2=O)cc1Cl	6	-8	i	-12	-15	0	3	-20
COc1ccc(C(=O)n2nnc3ccccc32)cc1OC	10	-2	.	-8	.	4	4	14
Cn1nnnc1NCc1ccc(Cl)c(Cl)c1	-20	-2	i	1	.	5	5	6
Cn1c(SCC(=O)c2ccc3c(c2)Cc2ccccc2-3)nnc1-c1ccccc1	-14	3	i	11	.	4	5	.
CCOc1ccc(NC(=O)N2CCN(Cc3ccc4c(c3)OCO4)CC2)cc1	5	-4	i	6	.	-1	5	-43
COc1ccc(C2c3[nH]c4ccccc4c3C[C@H]3C(=O)N(c4ccccc4C(=O)NCCN4CCOCC4)C(=O)N23)cc1 (stereo partly drawn)	-5	-9	i	0	4	-6	-2	.
CCOC(=O)c1cnn(-c2nc(SC)nc3sc4c(c23)CCC4)c1N	-1	3	i	45	14	9	8	.
CC(=O)c1ccccc1NC(=O)COC(=O)c1ccc2c(c1)nc(C)n2-c1ccccc1	54	10	i	-4	.	.	.	.
CC(C)(C)NC(=O)C(OC(=O)c1cccs1)c1ccc(C#N)cc1 (stereo not drawn)	-8	-2	i	-1	-14	-3	-1	0
CCOC(=O)C1CCN(C(=O)Cn2c(=O)c3cccn3c3cccnc32)CC1	0	5	i	-8	4	0	4	19
CN(c1ncc(C(F)(F)F)cc1Cl)n1cc(C(=O)O)c2ccccc2c1=O	.	7	i	-3	-2	-5	4	-85
Cc1noc(C)c1CS(=O)(=O)Cc1ccc(Cl)cc1	-16	4	i	-4	.	1	-1	0
CCC(c1nnnn1-c1c(C)cccc1C)N1CCN(C/C=C/c2ccccc2)CC1 (stereo not drawn)	.	.	.	.	-4	-3	-9	-1
O=C1C=CCC(/C=C/c2ccccc2)O1 (stereo not drawn)	12	8	i	1	.	.	.	.
Cn1ncc2c(Nc3ccccc3Br)ncnc21	1	-2	i	-2	-5	-2	0	.
CC(Nc1cccc2ccccc12)C(=O)N/N=C/c1ccccn1 (stereo not drawn)	40	28	i	14	-20	-46	10	.
CNC(=S)N(Cc1ccco1)Cc1cc2cc(OC)c(OC)cc2[nH]c1=O	-1	5	i	-4	.	6	2	-8
CCOC(=O)c1c(-c2cccs2)csc1N	-4	10	i	-5	.	-4	2	-20
CCOC(=O)C1CCN(C(=O)COC(=O)CNC(=O)c2ccc(C(C)(C)C)cc2)CC1	.	.	.	.	-6	4	2	-3
N#Cc1c(Oc2ccc3ccccc3c2)sc(C(=O)c2ccccc2)c1N	.	-6	i	-3	-10	-18	-24	.
CN(C)S(=O)(=O)N1CCN(CC(=O)Nc2cc(Cl)ccc2Cl)CC1	-7	-8	i	-1	-11	11	-3	.
CCCCCCSc1cccc(-c2nc3cc(C)ccn3c2NCc2ccccc2)c1	63	.	i	.	-26	4&13	-1&-4	5
Cc1ccc(S(=O)(=O)N(C)C)cc1NC(=S)N(C)C1CCN(C)CC1	-1	4	i	0	8	1	2	-17
Cc1c(NC(=O)Nc2ccc(F)cc2F)c(=O)n(-c2ccccc2)n1C	7	-5	i	-4	-12	3	3	-3
CC(=O)C1=C(O)C(=O)N(CO)C1c1ccccc1F (stereo not drawn)	-5	11	i	0	.	-3	2	.
COc1cc(S(=O)(=O)N2CCN(C(=O)c3ccco3)CC2)ccc1Cl	-11	-1	i	-8	-4	3	-1	11
O=C(O)c1[nH]nc2c1COc1ccccc1-2	-8	6	i	-4	-14	5	4	.
C=CS(=O)(=O)N(Cc1ccccc1)[C@H](CO)CC(C)C	.	.	.	.	-5	0	-5	-2
N#Cc1c(N)n(Cc2ccccc2)c(=O)c2cc([N+](=O)[O-])ccc12	13	24	i	26	-3	9	12	3
CCC1(CC)NC(=O)N(CC(=O)Nc2sc3c(c2C(N)=O)CCC3)C1=O	-8	71*	i	79*	3	-9	5	-10
N#Cc1ccccc1OCC(=O)NNC(=O)CNC(=O)c1ccc(Br)o1	-13	.	.	.	-9	0	0	32
O=C(CCS(=O)(=O)c1ccc(Br)cc1)Nc1ccc(Cl)cc1F	-4	-3	i	-4	-11	-1	9	6
CCCCCC(=O)NC(=S)NNC(=O)CC	-9	-5	i	4	.	4	2	.
O=C1c2nc3cc(-c4ccco4)[nH]n3c(=O)c2CN1Cc1ccccc1	-8	85*	i	85*	-9	-7	0	-2
COC(=O)c1cc(C(C)=O)c(C)[nH]c1=O	-17	-1	i	1	-14	1	4	-11
Nc1c2c3c(sc2nc(=O)n1N)CCCC3	.	2	i	-1	.	3	4	12
CC(C)(C)SCCNC(=O)CN(c1ccc(F)cc1)S(=O)(=O)c1ccccc1	4	-5	.	-6	13	1	2	16
O=C(NN=C(Cc1ccccc1)Cc1ccccc1)c1ccncc1	-7	5	i	0	.	2	4	4
COCCn1c(CN(C)Cc2ccccc2)nc2c1c(=O)n(C)c(=O)n2C	1	2	i	0	-17	7	-7	20
CC(C)(C)C1CCC2(CC1)CC(=O)c1ccccc1O2 (stereo not drawn)	-7	0	i	-6	-23	2	1	10
COc1cc2cc(CCCOC(=O)c3ccc4c(c3)OCO4)oc(=O)c2cc1OC	-2	.	.	.	-11	-1	-1	9
CC1CCC(NC(=O)c2cccc(S(=O)(=O)N3CCN(c4ccccc4)CC3)c2)CC1 (stereo not drawn)	.	.	i	.	.	2	-5	21
Additional entries.
SMILES	CSC inhib	PABP FP inh	Rce1 inhib	eIF4H FP inh	UUG fidelity	MT1-MMP act inh	MT1-MMP act inh RFP	HIV Env fusion	others
Cc1cc(C)nc(NC(=O)Nc2ccccc2C(F)(F)F)n1	32	-7	i	-1	.	-4	-5	.
CCc1nnc(NS(=O)(=O)c2ccc(NC(=O)c3cc(Cl)ccc3[N+](=O)[O-])cc2)s1	-14	20	i	14	-13	1	0	3
O=C(NCCCn1ccnc1)c1ccncc1	-7	-8	i	-8	-17	-4	-4	-31
CCN(CC)c1ccc(N2C(=O)C3CCCCC3C2=O)cc1[N+](=O)[O-] (stereo not drawn)	1	-6	i	-4	-1	2	1	8
CC(=O)Nc1ccc(NCc2cccs2)cc1	-7	-8	i	3	-16	4	4	-8
COc1ccccc1N1CCN(C2CCCN(C(=O)c3csc(C)n3)C2)CC1 (stereo not drawn)	-8	-4	i	-7	-18	-2	-1	3
Cc1ccc(C)c(S(=O)(=O)Nc2ccc(C(=O)N3CCCCC3)cc2)c1	-2	-7	.	-9	6	4	-2	-5
CCOC(=O)CC1C(=O)NCCN1S(=O)(=O)c1cccc(C(F)(F)F)c1 (stereo not drawn)	-1	7	i	-1	-13	-3	0	-2

Source: PubChem
